Sa ugtP lethal – growth inhibition of ugtP-null S. aureus, primary screen, RN4220 ugtP deletion, OD600 | growth inhibition, % (concentration not given with the values) | 330,000 tested, 0.54% active | 16 h; some inactives read as strong as hits;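 active = z-score under -3 and OD600 up to 0.15 on both plates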;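 also: plate controls were untreated wells for no effect and antibiotic for full effect; wells of about 80 µL received 100 nL stock; the first replicate is given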
PrP 5UTR inh – inhibition of PrP 5' UTR reporter expression | cell-based PrP 5' UTR mRNA reporter, plate reader | inhibition, % (no concentration beside the values) | 340,000 tested, 0.35% active;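 active = every replicate at 50% or more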;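 also: 0 = median of the neutral control wells; tested in H4 reporter cells; numbers are from one replicate; inactives centre near -14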
Bead autofluor – flagged as autofluorescent in microsphere protease counterscreen. compound autofluorescence counterscreen, microsphere flow cytometry; hits give high values. fluorescence intensity (no concentration beside the values). 360,000 tested, 3.1% active;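 active = at least 3 SD above the mean of all compounds, about 16000 in these data; inconclusive = too few beads counted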;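 also: 100 nL of 1 mM stock went into each well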
RN4220 kill – growth inhibition of S. aureus RN4220, primary screen, OD600 | 16 h | inhibition, % (test concentration not listed) | 330,000 tested, 0.33% active;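 active = z-score of -3 or lower and OD600 up to 0.18 on both plates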;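 also: plate controls were untreated cells for no effect and reference antibiotic for full effect; stock transfer was 100 nL into about 80 µL; one replicate is shown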
Mtb hypoxia inh – PubChem AID 1159583; fluorescence inhibition, % (test concentration not listed); 300,000 tested, 0.1% active; M. tuberculosis hypoxia-regulated fluorescent reporter, fluorescence;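 active = 35 to 45% if threefold the growth effect, above 45% if 1.5-fold the growth effect; inactive = the rest, general growth blockers included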;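 also: wells of about 50 µL received 100 nL stock; 0% = vehicle wells and 100% = reference inhibitor wells; whole bacteria with a GFP reporter of the hypoxia response; strong numbers were not always called active; many hits fall short of the cut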
BJeLR viability – MLPCN primary cell-based screen for lethality selective to Ras in HRASV12 cells. BJeLR (HRASV12) viability, CellTiter-Glo ATP luminescence, 48 h; reference of the scale not given here. inhibition, % (no concentration beside the values). 300,000 tested, 0.17% active. AID 1554, 2009;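 active = replicate mean above 50%; inconclusive = above 50% but judged a plate artefact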;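 also: 50 nL library stock added to about 25 µL; numbers are from one replicate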
Mtb hypoxia inh growth – also measured in Mtb hypoxia inh; calls as there; growth inhibition, %; measured here: M. tuberculosis growth (absorbance);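 0% = vehicle and 100% = reference antibiotic; read after six days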
Starred values were filed as active, the others as inactive; ? = inconclusive; . = no result given. Compounds as they come (roughly 4% active in at least one column).

SMILES	Sa ugtP lethal	PrP 5UTR inh	Bead autofluor	RN4220 kill	Mtb hypoxia inh	Mtb hypoxia inh growth	BJeLR viability
O=C(O)C1C2CC2CN1C(=O)c1ccc(Cl)cc1 (configuration not stated)	0	-9	4734	-0.5	-10	14	4
CC(c1nc2ccccc2c(=O)[nH]1)N1CCOCC1 (configuration not stated)	3	-8	3507	1.8	10	-1	2
Cc1sc2nc(CC(=O)NN)[nH]c(=O)c2c1C	5	-17	4646	3.2	16	-4	1
Cc1ccc(NC(=O)CSc2nnc([C@@H](N)Cc3c[nH]c4ccccc34)o2)c(C)c1	-9	-26	10694	2.7	14	2	-7
CC(C)CC(OC(=O)c1nsc(Cl)c1Cl)C(=O)NCc1cccs1 (configuration not stated)	9	-15	6641	4.6	18	11	-1
CC1=CSC2=NC(=O)/C(=C\c3cccn3-c3ccc([N+](=O)[O-])cc3)C(=N)N12	-10	-20	8224	3.4	3	-6	-3
Cc1cc(C)c(NC(=O)/C(=C/c2ccccc2)c2ccccc2)c(C)c1	-17	-15	2652	21	2	-3	5
N#CC1=C(N)C(C#N)(C#N)C2(C(=O)Nc3ccccc32)C2CCCC=C12 (configuration not stated)	-15	-40	9914	17	9	12	-14
COc1ccc(NC(=O)CCCNC(=O)c2ccc(Cl)cc2)cc1S(=O)(=O)N1CCOCC1	6	-15	3038	3.7	10	6	.
O=C(NC1(C(F)(F)F)C(=O)Nc2c1c(=O)[nH]c(=O)n2Cc1ccccc1)c1ccc(Cl)cc1Cl (configuration not stated)	12	-9	16727*	6.1	-1	0	-1
CCOC(=O)c1sc(/N=C/N(C)C)nc1C	.	-17	7892	.	.	.	4
CC[C@@]12C(=O)N(c3cccc(F)c3)C(=O)N1[C@H](c1ccc(Br)cc1)[C@@H]1C(=O)N(C(C)(C)C)C(=O)[C@@H]12	.	-7	4046	.	.	.	5
CC1=C(C(=O)O)N2C(=O)C(NC(=O)c3c(F)cccc3F)C2SC1 (configuration not stated)	6	-10	5723	5.9	7	6	.
COc1ccc2c(c1)C(=O)N1C3c4cc(OC)ccc4OCC3C(c3ccccc3)[C@]1(C)C(=O)N2 (some centres not stated)	-24	.	.	-3.9	1	9	.
O=C1C=C2C=C[C@H]3C[C@]2(O1)[C@@H]1CCCCN13	.	-11	3843	.	.	.	-4
CCc1nccn1S(=O)(=O)c1cc(Br)ccc1OC	3	-12	4344	6.5	9	4	2
CCN1C(=O)[C@H]2[C@H]3CN=C(SCC4CC4)N3[C@@](Cc3ccccc3)(C(=O)OC)[C@H]2C1=O	3	64*	2949	5.4	-5	-15	.
c1ccc(COc2ccc(OCCCNC3CCCC3)cc2)cc1	-5	-23	4518	-4.2	15	18	10
NC(=O)C1CCN(Cc2ccc(OCc3ccccc3)cc2)CC1	12	-61	4085	2.3	8	-2	-1
COc1ccc(-n2nc(C(=O)Nc3nc4ccc(OC)cc4s3)c3ccccc3c2=O)cc1	.	-9	2136	.	.	.	4
COc1ccc(-c2cc(=O)oc3cc(OCC(=O)Nc4ccc(CCO)cc4)ccc23)cc1	-4	17	4298	-1.9	2	-7	17
O=C(Cn1nc(Cc2cccnc2)c2ccccc2c1=O)Nc1ccccc1F	14	0	4487	3.8	1	9	-4
Cc1ccc(C=NNC(=O)Cn2nnc3ccccc32)o1	-1	.	.	3.3	3	9	.
O=C(NCc1cccnc1)C1c2ccccc2C(=O)N1C1CCCCCCC1 (configuration not stated)	8	-9	8095	3.9	12	9	3
Cc1cc(C(=O)O)c(CSc2ncn[nH]2)o1	2	-34	2077	-4.4	-10	-5	-3
SMILES	Sa ugtP lethal	PrP 5UTR inh	Bead autofluor	RN4220 kill	Mtb hypoxia inh	Mtb hypoxia inh growth	BJeLR viability
Cc1cc(C)nc(SCNC(=O)c2ccccc2)n1	2	5	10821	2.0	0	3	3
COc1ccc(C(=O)N(Cc2ccco2)C(C(=O)NC2CCCC2)c2ccc(O)cc2)cc1OC (configuration not stated)	10	-44	15159	0.8	2	-2	.
O=C(NNC(=O)c1ccc(Br)o1)c1ccc(NS(=O)(=O)c2cccs2)cc1	8	-6	3829	6.4	8	10	.
O=C(Nc1ccc(NC(=O)C23CC4CC(CC(C4)C2)C3)cn1)c1ccco1	-12	-96	3872	-1.6	.	.	1
COc1ccc(CN(CCCN2CCOCC2)C(=O)Nc2cccc(Cl)c2)cc1OC	-2	-12	2424	1.1	10	8	-1
O=CN1Cc2[nH]c3ccccc3c2N(c2ccc(Cl)cc2)C1=O	-9	-13	4349	-1.6	1	1	-3
Cc1cc(C)n(CCCNC(=O)CCNS(=O)(=O)c2ccccc2C(F)(F)F)n1	5	-6	5256	1.8	3	-2	2
COc1ccc(NC(=S)Nc2cnc3ccccc3c2)c(OC)c1	1	-12	5786	2.7	10	10	3
CC(C(=O)Nc1ccc(C(F)(F)F)cc1)N(C)CC(=O)N1CCN(Cc2ccccc2)CC1 (configuration not stated)	6	-4	3019	4.3	1	2	.
N#CCCCSc1nnc(Cc2ccc3c(c2)OCO3)o1	3	-26	4676	1.4	.	.	-1
N#Cc1cccc(C#N)c1Oc1ccc(S(=O)(=O)Nc2ccccc2)cc1	0	-9	?	8.6	3	2	4
Cc1cc(NC(=O)CSc2nnc3c4c(C)c(C)sc4ncn23)no1	2	-14	10440	5.0	3	3	2
O=C(NC(=S)N1CCN(c2ccc(F)cc2)CC1)c1cccs1	10	19	2507	7.2	15	3	4
Cc1nn(Cc2ccc(Cl)cc2)c(C)c1NC(=O)C1CC=CCC1C(=O)O (configuration not stated)	-6	-17	2871	-12	17	10	-18
O=C(c1cc(-c2ccc(Br)cc2)on1)N1CCOCC1	4	-86	4843	6.1	0	4	-27
COc1cccc(C=NNC(=O)C(c2ccncc2)N2CCOCC2)c1 (configuration not stated)	2	.	.	2.4	7	15	.
Cc1ccc2[nH]c(C)c(CCNC(=O)NC3CCCCC3)c2c1	4	-24	3953	2.2	16	4	.
Cc1ccc(NS(=O)(=O)c2ccc3c(c2)NC(=O)CCS3)cc1F	0	-9	4402	8.5	5	-12	7
Cn1c(=O)c2c(nc(N3CCOCC3)n2C)n(C)c1=O	-5	-17	2764	2.4	-5	-5	-9
CCCn1c(OC)nc2c1c(=O)n(C)c(=O)n2C	-6	-1	6006	5.4	2	4	.
COc1ccc(CC(=O)NN=Cc2ccc(-c3cccc(C(=O)O)c3)o2)cc1OC	13	.	.	3.5	0	8	.
CN(c1ccccc1)S(=O)(=O)c1ccc(Cl)c(C(=O)NCc2ccco2)c1	3	-40	4116	1.2	13	0	.
COc1ccc(Cl)cc1NC(=O)CN(C)C(=O)c1cc2c(F)cccc2s1	-6	-4	8239	-4.0	-6	3	.
CN(CCOCCOc1ccc(Cl)cc1Br)Cc1ccccc1	2	-3	4033	3.0	5	16	7
Cc1noc(C)c1C(c1ccccc1)S(=O)(=O)c1ccccc1 (configuration not stated)	-4	-11	2114	6.9	0	4	6

Profiles from above:
Listed for N#Cc1cccc(C#N)c1Oc1ccc(S(=O)(=O)Nc2ccccc2)cc1 → Sa ugtP lethal = 0; PrP 5UTR inh = -9; Bead autofluor = ?; RN4220 kill = 8.6; Mtb hypoxia inh = 3; Mtb hypoxia inh growth = 2; BJeLR viability = 4
Listed for Cc1ccc(NC(=O)CSc2nnc([C@@H](N)Cc3c[nH]c4ccccc34)o2)c(C)c1 → Sa ugtP lethal = -9; PrP 5UTR inh = -26; Bead autofluor = 10694; RN4220 kill = 2.7; Mtb hypoxia inh = 14; Mtb hypoxia inh growth = 2; BJeLR viability = -7
Listed for CCOC(=O)c1sc(/N=C/N(C)C)nc1C → Sa ugtP lethal = .; PrP 5UTR inh = -17; Bead autofluor = 7892; RN4220 kill = .; Mtb hypoxia inh = .; Mtb hypoxia inh growth = .; BJeLR viability = 4

Carrying on.
SMILES	Sa ugtP lethal	PrP 5UTR inh	Bead autofluor	RN4220 kill	Mtb hypoxia inh	Mtb hypoxia inh growth	BJeLR viability
O=c1[nH]cnc2c1oc1ccccc12	-2	-8	4350	5.9	1	4	0
C=CS(=O)(=O)c1sc(Cl)c(N2CCOCC2)c1[N+](=O)[O-]	-1	10	2981	2.7	-3	-11	-2
N/C(Cc1cccc2ccccc12)=N\OC(=O)COc1ccccc1	26	-14	8690	1.2	1	-5	-10
COc1ccc(NC(=O)N2CCCCCC2)cc1	14	-35	3893	1.6	8	2	-6
COC(=O)c1ccc(NC(=O)CN2CCN(S(=O)(=O)c3cc(Cl)ccc3OC)CC2)cc1	-2	-6	2543	2.0	.	.	11
Cc1ccnc(NC(=O)c2ccccc2NC(=O)C(C)(C)C)c1	10	-12	3785	0.8	.	.	4
S=c1[nH]nc(-c2cc(-c3ccccc3)n[nH]2)n1N=Cc1ccc(Cl)c(Cl)c1	-26	.	.	-11	1	2	.
CC12CC[C@H]3[C@@H](CCC4(O)C[C@H](O)CCC34/C=N/NC(=O)c3ccccc3Cl)C1(O)CCC2C1=CC(=O)OC1 (some centres not stated)	.	-31	5425	.	.	.	4
NC(=S)NN=Cc1ccc(C(F)(F)F)cc1	0	.	.	4.0	.	.	.
CCN(CC)c1ccc(N=Cc2c(O)n(-c3ccccc3C)c(=O)[nH]c2=O)cc1	-8	-14	9636	-0.2	-4	5	1
Cc1sc2nc(C3CC3)nc(N3CCN(S(=O)(=O)c4ccc(F)cc4)CC3)c2c1C	-3	-5	10242	-3.6	-6	3	5
CSc1ncccc1C(=O)OCc1ccccc1F	7	-57	3183	-3.8	2	11	-5
Cc1[nH]nc(-c2ccc(O)cc2O)c1Oc1ccccc1	-19	-14	5481	7.0	6	0	4
Cc1cccc(NC(=O)Cn2cnc3c(oc4ccccc43)c2=O)c1C	6	-22	4418	13	10	7	-2
Brc1ccc(OCc2nc(-c3ccccn3)n[nH]2)cc1	-10	-31	2233	-5.0	.	.	2
C=CCn1c(O)c(C(C)=Nc2cccc(C(=O)O)c2)c(=O)[nH]c1=O	12	-27	4091	2.1	0	-3	13
CCOC(=O)CC1C(=O)NCCN1S(=O)(=O)c1ccc(Br)cc1 (configuration not stated)	9	-24	2583	2.8	3	-1	8
CCOC(=O)c1sc(NC(=O)COC(=O)c2ccco2)nc1C	-5	3	.	-3.3	-1	12	-2
CCOc1ccc(NC(=O)NNC(=O)c2cccnc2)cc1	-3	-20	4726	-2.3	-8	-12	2
O=C(Cc1ccc([N+](=O)[O-])cc1)NC1CCCCCC1	4	-11	3466	0.7	11	12	-14
O=P(C1=C(N2CCOCC2)/C(=C\c2ccccc2)CC1)(N1CCOCC1)N1CCOCC1	6	-4	6117	6.9	8	6	-10
Cc1onc(-c2c(Cl)cccc2Cl)c1-c1nnc(-c2ccc(Cl)cc2)o1	23	-15	3411	-1.1	22	3	-3
Cc1ccc(OCC(=O)NCCNC(=O)c2ccccn2)cc1	2	-14	3993	-3.5	6	1	-1
CC(C)(C)c1ccc(C(=O)NNC(=O)CCC(=O)Nc2ccccc2)cc1	2	-15	5594	-2.9	-8	3	8
O=C(Nc1nnc(CCc2ccccc2)s1)c1cccs1	-5	-43	3293	-3.0	15	6	3
O=C(N1CCCCCC1)N1CCN(C(=O)N2CCCCC2)CC1	9	-6	2722	-0.5	.	.	-7
CCOc1ccc(C2CC=C(C(=O)O)C(c3ccc(F)cc3)N2S(=O)(=O)c2ccc(C)cc2)cc1 (configuration not stated)	19	.	.	13	6	8	.

Shown with each value named: 4 of the compounds above
compound: CCOC(=O)CC1C(=O)NCCN1S(=O)(=O)c1ccc(Br)cc1 (configuration not stated)
  Sa ugtP lethal = 9
  PrP 5UTR inh = -24
  Bead autofluor = 2583
  RN4220 kill = 2.8
  Mtb hypoxia inh = 3
  Mtb hypoxia inh growth = -1
  BJeLR viability = 8
compound: CCOC(=O)c1sc(NC(=O)COC(=O)c2ccco2)nc1C
  Sa ugtP lethal = -5
  PrP 5UTR inh = 3
  Bead autofluor = .
  RN4220 kill = -3.3
  Mtb hypoxia inh = -1
  Mtb hypoxia inh growth = 12
  BJeLR viability = -2
compound: CCOc1ccc(NC(=O)NNC(=O)c2cccnc2)cc1
  Sa ugtP lethal = -3
  PrP 5UTR inh = -20
  Bead autofluor = 4726
  RN4220 kill = -2.3
  Mtb hypoxia inh = -8
  Mtb hypoxia inh growth = -12
  BJeLR viability = 2
compound: O=C(Cc1ccc([N+](=O)[O-])cc1)NC1CCCCCC1
  Sa ugtP lethal = 4
  PrP 5UTR inh = -11
  Bead autofluor = 3466
  RN4220 kill = 0.7
  Mtb hypoxia inh = 11
  Mtb hypoxia inh growth = 12
  BJeLR viability = -14

Bioassay records (PubChem BioAssay)
